# Mtb betalactam = beta-lactam sensitization of Mtb H37Rv, H37Rv | M. tuberculosis H37Rv growth with meropenem, percent inhibition; hits of this screen are not shown here | inhibition, % at 25 µM | actives 0.27% (n = 330,000) | AID 434955, 2010;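 active = about 74% or more and at least 40 points above the plate without the antibiotic, then above 30% in a dose series; inconclusive = first-round hits that could not be retested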;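 also: growth measured after seven days incubation then overnight dye step; 0% = bacteria only wells and 100% = bacteria with antibiotic; twin plates without the antibiotic show which effects depend on it; some results filed as inactive read as strong as hits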
# RecA intein inh = Mtb RecA intein splicing inhibitors, primary screen, biochemical, fluorescence, HTS. Protein RecA (Mycobacterium tuberculosis (strain ATCC 25618 / H37Rv)), P9WHJ3. cell-free RecA intein splicing. inhibition, %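 (about 9 µM by stock and volumes)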. actives 0.75% (n = 290,000). AID 2221, 2009; in the data active = inhibition above about 30%; inconclusive = no clear call, values can overlap the other calls;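 also: 0% = vehicle wells and 100% = reference inhibitor control wells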
# Target sequence (P9WHJ3 whole entry, looked up): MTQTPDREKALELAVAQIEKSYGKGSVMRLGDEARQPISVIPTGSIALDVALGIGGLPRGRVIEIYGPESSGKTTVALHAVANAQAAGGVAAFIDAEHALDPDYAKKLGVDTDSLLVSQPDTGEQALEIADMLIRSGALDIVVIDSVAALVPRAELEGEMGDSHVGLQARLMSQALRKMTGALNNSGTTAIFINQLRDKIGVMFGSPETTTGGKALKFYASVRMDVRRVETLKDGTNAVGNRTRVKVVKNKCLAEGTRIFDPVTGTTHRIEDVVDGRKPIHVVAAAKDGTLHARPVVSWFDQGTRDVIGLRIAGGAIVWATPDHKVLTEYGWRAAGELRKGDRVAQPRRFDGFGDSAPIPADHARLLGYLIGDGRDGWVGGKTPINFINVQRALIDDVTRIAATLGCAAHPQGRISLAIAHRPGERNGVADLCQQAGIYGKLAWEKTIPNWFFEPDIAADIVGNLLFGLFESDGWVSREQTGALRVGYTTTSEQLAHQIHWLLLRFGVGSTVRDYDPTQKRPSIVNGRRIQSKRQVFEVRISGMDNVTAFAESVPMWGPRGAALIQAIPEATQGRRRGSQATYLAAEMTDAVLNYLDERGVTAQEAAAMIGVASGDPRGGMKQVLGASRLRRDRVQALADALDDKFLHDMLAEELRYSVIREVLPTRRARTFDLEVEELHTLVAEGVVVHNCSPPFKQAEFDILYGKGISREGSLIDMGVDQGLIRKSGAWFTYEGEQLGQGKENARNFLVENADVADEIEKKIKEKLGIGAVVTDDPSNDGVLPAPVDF
# YopH PTP inh = YopH tyrosine phosphatase inhibitors, primary screen, biochemical, fluorescence Ex485/Em525 | YopH tyrosine phosphatase [Yersinia enterocolitica] | inhibition, %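 (about 10 µM by stock and volumes)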 | actives 0.16% (n = 140,000);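 active = inhibition of 50% or more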;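 also: controls were vehicle for no effect and minimum signal wells for full effect; inactives centre near -20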
# Arbovirus inh = antivirals against arbovirus infection, primary screen, cell-based, full library, 10K replicate subset; actives 0.37% (n = 200,000); arbovirus infection cell-based antiviral screen; AID 1251, 2008; inhibition, % at 10 µM;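 active = inhibition from about 30%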;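 also: bluetongue infection of BSR cells; cell survival read as ATP light after 72 h; 0% = infected wells without compound and 100% = uninfected wells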
# Mtb H37Rv = M. tuberculosis H37Rv growth inhibitors, H37Rv strain (AID 1626) | actives 0.95% (n = 220,000) | inhibition, % at 10 µM; hits with a dose series show IC50 in µM | M. tuberculosis H37Rv growth inhibition; higher % means a stronger effect;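 active = confirmed in a dose series; inconclusive = inhibition above 80% but not taken into the dose series; inactive = below 80% or under 30% at every dose of the series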;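 also: bacteria incubated seven days before Alamar blue readout; 0% = bacteria only wells and 100% = bacteria with antibiotic wells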
# Arbovirus inh repeat = recorded beside Arbovirus inh, whose call it bears; inhibition, %; measured here: 10K subset replicate screen; many hits read low in the repeat;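 first of two repeat runs on a subset; 0% = infected and 100% = uninfected wells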
# Starred values were filed as active, the others as inactive; ? = inconclusive; . = no result given.
# Start of the listing, in advance (5 entries):
SMILES,Mtb betalactam,RecA intein inh,YopH PTP inh,Arbovirus inh,Mtb H37Rv,others
CC(NC(=O)CCNS(=O)(=O)c1cccc2nonc12)c1ccccc1 (stereo unspecified),2,-3.9,.,.,.,
COC(=O)c1sccc1NC(=O)c1cccnc1,-7,-3.0,30,8,-1%,
CC(C)(C)OC(=O)NCCCC[C@H](NC(=O)c1nc[nH]c1C(=O)NCC(=O)OCc1ccccc1)C(=O)OC(C)(C)C,-2,0.3,.,.,.,
CCc1ccnc(NC(=O)NS(=O)(=O)c2ccc(C)cc2)c1,-3,1.3,.,.,-5%,
O=C1CC(=O)Nc2cc(S(=O)(=O)N3CCN(c4ccc([N+](=O)[O-])cc4)CC3)ccc2N1,1,0.7,.,.,.,

# The listing, from the first entry:
SMILES,Mtb betalactam,RecA intein inh,YopH PTP inh,Arbovirus inh,Mtb H37Rv,others
CC(NC(=O)CCNS(=O)(=O)c1cccc2nonc12)c1ccccc1 (stereo unspecified),2,-3.9,.,.,.,
COC(=O)c1sccc1NC(=O)c1cccnc1,-7,-3.0,30,8,-1%,
CC(C)(C)OC(=O)NCCCC[C@H](NC(=O)c1nc[nH]c1C(=O)NCC(=O)OCc1ccccc1)C(=O)OC(C)(C)C,-2,0.3,.,.,.,
CCc1ccnc(NC(=O)NS(=O)(=O)c2ccc(C)cc2)c1,-3,1.3,.,.,-5%,
O=C1CC(=O)Nc2cc(S(=O)(=O)N3CCN(c4ccc([N+](=O)[O-])cc4)CC3)ccc2N1,1,0.7,.,.,.,
CCOC(=O)c1cc2sccc2n1CC(=O)Nc1ccc(OC)cc1OC,3,6.6,-21,2,0%,
CCOC(=O)C1(Cc2ccccc2Cl)CCN(C(=O)c2cc(C)on2)CC1,2,2.6,.,.,.,
O=C(c1ccc(C(F)(F)F)cc1)N1CCC(=O)N(C(COCc2ccc(C(F)(F)F)cc2)Cc2ccccc2)CC1 (stereo unspecified),0,7.6,22,-26,12%,
O=C(OCC(=O)N1CCc2ccccc2C1)c1cccc([N+](=O)[O-])c1,98,-1.1,-8,6,68%,
C/C(=N\NC(=O)Cc1cccn1C)c1cccs1,-3,8.6,-21,2,0%,
O=C(CN1CCN(c2cccc(Cl)c2)CC1)Nc1nccs1,12,0.5,.,1,5%,
CN1CCN(c2nc(-c3cccs3)nc3ccccc23)CC1,0,-0.5,-28,-11,-8%,
CSc1nnc(N2C(=O)C(O)=C(C(=O)c3ccco3)C2c2ccc(F)cc2)s1 (stereo unspecified),5,-1.5,.,.,.,
N#Cc1c(N)oc(-c2cccs2)c1-c1cccs1,2,5.0,-26,-4,2%,
CC(=O)Nc1ccc2nc(-c3cccs3)[nH]c2c1,-6,0.6,-58,4,.,Arbovirus inh repeat=-6
CCN(CC)C(=O)c1ccc(COc2ccccc2Cl)o1,-7,4.2,.,.,.,
CC(C)C(OC(=O)c1cc2occc2n1C)C(=O)NCc1ccc2c(c1)OCO2 (stereo unspecified),-5,1.4,-9,-4,3%,
Cc1ccc(OCC(=O)Nc2ccc(NC(=O)c3ccccc3)c(C)c2)cc1,3,-1.2,.,.,.,
CCOc1ccc(NS(=O)(=O)c2cc(OC)ccc2OC)cc1,8,1.1,-27,-1,4%,
Cc1ccc2[nH]cc(CCNC(=O)c3ccc([N+](=O)[O-])cc3)c2c1,-5,1.3,-3,2,.,
COc1cccc(-c2cc3nc(-c4ccccc4)cc(N4CCCC(O)C4)n3n2)c1 (stereo unspecified),98,9.2,.,-32,50%,
O=C(CSc1nnc(CNC(=O)c2ccco2)o1)Nc1ccccc1F,1,1.0,.,.,.,
CCC1(C)Cc2ccccc2-c2c1c(=O)n(-c1ccc(C)cc1)c1nnnn21 (stereo unspecified),-7,2.8,-22,1,.,
O=C(/C=C/c1ccc(S(=O)(=O)N2CCOCC2)cc1)NCc1ccccc1Cl,4,-1.4,-30,5,4%,
COc1ccc2cc(CN(CC3CCCO3)S(=O)(=O)c3ccc(C(C)=O)cc3)c(=O)[nH]c2c1 (stereo unspecified),13,-0.8,-21,-4,-10%,
O=C(CSc1nc2c(c(=O)n1-c1ccc(Br)cc1)SCC2)NCC1CCCO1 (stereo unspecified),-6,-2.0,-3,12,3%,Arbovirus inh repeat=0
Cc1ccc(NC(=O)C2CCN(S(=O)(=O)c3cccc4cccnc34)CC2)nc1,-5,-0.9,-37,3,-12%,Arbovirus inh repeat=9
CCC(=O)NCCc1nc2cc(NC(=O)c3ccc(F)cc3)ccc2n1C,3,-1.9,.,.,.,
CCOc1cc(/C=C2\C(=O)N(c3nc(-c4ccc(Br)cc4)cs3)N=C2c2ccccc2)ccc1O,4,3.7,-5,2,.,
COc1ccc(CC(=O)N2CCCC(C)C2)cc1 (stereo unspecified),1,-0.5,-17,-3,2%,
O=C1C(Cc2ccc(O)cc2)NC(=S)N1c1ccccc1 (stereo unspecified),4,-2.1,-34,-3,-5%,
CN(C)c1nc(OCCNC(=O)COc2ccccc2Cl)nc(N(C)C)n1,-3,1.0,-13,-16,-7%,
O=C(c1cnc(N2CCN(c3ncccn3)CC2)c2ccccc12)N1CCN(c2ncccn2)CC1,-12,4.3,-25,-2,.,
O=C(CSc1ccc(Cl)cc1)N1CCN(c2ccc(Cl)cc2[N+](=O)[O-])CC1,10,5.0,-28,-3,16%,
Cc1ccc(CCNC(=O)c2sc3nc4n(c(=O)c3c2C)CCC4)cc1,0,-1.8,.,.,.,
Cc1ccc(C)n1-c1ccc(C(=O)/C=C/N(C)C)cc1,2,-7.3,.,-8,-1%,
O=C(Nc1cccc(C(F)(F)F)c1)c1cccn(Cc2ccc3c(c2)OC(F)(F)O3)c1=O,1,2.4,-41,-15,-1%,
Clc1ccc(-c2c[nH]c3ccccc23)nn1,-10,-2.0,.,1,4%,
Cc1ccc(-n2nc(C)c3c2NC(=O)CSC3c2ccc3c(c2)OCO3)cc1 (stereo unspecified),-8,5.2,-31,-9,-2%,Arbovirus inh repeat=-6
COC(=O)/C(=C(/F)Sc1cc(C)c(O)c(C)c1)C(F)(F)F,-11,2.9,4,-4,7%,
CCOc1ccccc1CNC(=O)CCC(=O)N1Cc2ccccc2Oc2ncccc21,-3,-1.3,.,.,.,
Cc1ccc(NC(=O)OC(C)CNC(=O)Oc2cccc(C)c2)cc1 (stereo unspecified),-1,.,.,0,3%,
CC(C(=O)NCc1cccs1)N1C(=O)c2ccccc2C1=O (stereo unspecified),-9,-0.1,0,1,-4%,
CCN(CC)CC#CCC1(O)c2ccccc2-c2ccccc21,13,-1.6,-16,21,-9%,
CCNc1nc(NC(C)(C)C)nc(Oc2ccc(=O)n(-c3ccccc3)n2)n1,4,-0.2,.,0,4%,
O=C(CSc1n[nH]c(-c2cccnc2)n1)Nc1ccc(Cl)cc1,2,-1.3,.,.,.,
O=C1CCCN1CC(=O)N1CCCC(N2CCN(c3cccc(Cl)c3)CC2)C1 (stereo unspecified),-6,-3.3,.,.,.,
COc1ccc(-c2nc3nc(C)c(Cc4ccccc4)c(=O)n3[nH]2)cc1,-3,1.7,-34,8,-1%,
Cc1cccc(NCc2ccccc2)c1,-2,-2.9,.,.,-12%,
O=C(C1CCCN1S(=O)(=O)c1cccc2cccnc12)N1CCN(c2ccccc2)CC1 (stereo unspecified),4,.,-66,2,-9%,
Cc1cc(OCC(=O)NC2CCN(C)CC2)ccc1[N+](=O)[O-],4,1.2,.,-5,4%,
CC1(C(=O)NNC(=O)c2cccc([N+](=O)[O-])c2)CC1(Br)Br (stereo unspecified),6,-0.2,.,.,.,
Cc1ccc(S(=O)(=O)NCCC(=O)N2CCN(Cc3ccccc3)CC2)cc1,3,-1.4,-25,9,-7%,
CC(=O)Nc1cccc2c1C(=O)N(c1ccc(C)cc1)C2=O,11,-7.6,-12,4,6%,
O=C(Nc1ccc(F)cc1)c1cc2ccccc2o1,58,3.6,.,.,.,
COc1ccc2oc(C(=O)Nc3ccccc3N3CCOCC3)c(C)c2c1,-7,1.0,.,.,.,
O=C(Nc1ccccc1N1CCOCC1)c1csc2c1CCCC2,4,11,.,.,8%,
CC(C)CN1C(=O)C(=O)N(CC(=O)Nc2cc(Cl)ccc2Oc2ccccc2)C1=O,-4,5.7,.,3,4%,
COc1ccc(-c2noc(CNS(=O)(=O)c3ccc(NC(C)=O)cc3)n2)cc1,-2,-2.0,.,.,.,
Cn1nccc1C(=O)N1CCOCC1,-9,1.0,.,.,.,

# (list continues)
SMILES,Mtb betalactam,RecA intein inh,YopH PTP inh,Arbovirus inh,Mtb H37Rv,others
CCN(CC(=O)NCc1ccc(Cl)cc1)C(=O)Cc1ccc(OC)cc1,6,-1.4,.,.,.,
O=C(OCCCCOC(=O)c1ccccc1)c1ccccc1,-4,-8.4,.,.,-9%,
c1cc2c(cnc3cscc32)s1,-3,1.3,-6,9,4%,
Cc1c(NC(=O)C(C)OC(=O)CC2CC3CCC2C3)c(=O)n(-c2ccccc2)n1C (stereo unspecified),-3,-5.2,.,2,5%,
CCCn1nnc(NC(=O)COc2ccc(C3CCCCC3)cc2)n1,3,5.0,-14,9,?,
N#CC1=C(N)OC2=C(C(=O)CCC2)C1C1CC=CCC1 (stereo unspecified),4,.,-32,6,-8%,
CN(c1ncnc(N)c1[N+](=O)[O-])C1CCS(=O)(=O)C1 (stereo unspecified),-6,-3.4,.,8,-6%,
CSc1nnc(C(C)(C)C)c(=O)n1/N=C/c1ccc(Cl)cc1,4,0.5,.,.,9%,
CNC(=O)CCCCCNS(=O)(=O)c1ccc(C)cc1,1,0.9,-17,5,-4%,
Oc1ccc2ccccc2c1C=NCc1ccccc1,10,3.0,.,.,-4%,
Cc1ccccc1NC(=O)C1C2CCC(O2)C1C(=O)O (stereo unspecified),-12,0.1,-10,0,2%,
CCc1cc(C(=O)N(CC(C)C)c2c(N)n(Cc3ccccc3)c(=O)[nH]c2=O)sc1C,0,-1.5,.,.,.,

# 3 compounds out of the list, sorted by number of heavy atoms, descending.
SMILES,Mtb betalactam,RecA intein inh,YopH PTP inh,Arbovirus inh,Mtb H37Rv,others
Cc1c(NC(=O)C(C)OC(=O)CC2CC3CCC2C3)c(=O)n(-c2ccccc2)n1C (stereo unspecified),-3,-5.2,.,2,5%,
CNC(=O)CCCCCNS(=O)(=O)c1ccc(C)cc1,1,0.9,-17,5,-4%,
c1cc2c(cnc3cscc32)s1,-3,1.3,-6,9,4%,

# Further results:
SMILES,Mtb betalactam,RecA intein inh,YopH PTP inh,Arbovirus inh,Mtb H37Rv,others
O=C(O)COCC(=O)Nc1ccccc1-c1ccccc1,3,-1.0,.,0,-1%,
COc1ccccc1CNC(=O)COc1ccccc1C,0,0.9,.,.,.,
COc1ccc(S(=O)(=O)Nc2cc(C)cc(C)n2)c2ccccc12,1,-0.2,-35,23,4%,
CCN(CC)S(=O)(=O)c1ccc(Cl)c(C(=O)NC2CCN(Cc3ccccc3)CC2)c1,1,0.9,.,.,.,
Cc1ccc(-n2c(=O)cc(N3CCN(C(=O)c4ccco4)CC3)[nH]c2=O)cc1,-1,0.6,-25,11,0%,
COc1ccc(NC(=O)c2ccc(NC(=O)c3cccs3)cc2)cc1,2,-1.1,.,.,.,
CCn1c(CNC(=O)c2ccco2)nnc1SCC(=O)Nc1cccc(F)c1,-8,-0.7,.,0,-1%,
COC(=O)c1ccc(CN2C(=O)NC3(CCCc4ccccc43)C2=O)o1 (stereo unspecified),-8,3.5,-48,3,4%,
CC(Cc1ccccc1)NC(=O)C1CCCNC1=O (stereo unspecified),1,-0.7,-8,-5,-5%,
COc1ccc(S(=O)(=O)n2nc(OC(C)=O)cc2N(C(C)=O)C(C)=O)cc1,-12,22,.,4,-7%,
CCCCc1c(O)nc(SCC(=O)N2CCCCCC2)[nH]c1=O,-4,-0.2,.,.,.,
O=S(=O)(c1cccc(Br)c1)N1CCN(CCc2ccccc2)CC1,-3,2.2,.,.,.,
O=C(Nc1cc2c(cc1Br)OCCO2)c1cccs1,-6,3.5,-25,7,-6%,
N#C/C(C(=O)NCc1ccco1)=C1/SC=C(c2ccccc2)N1c1ccccc1,.,-1.5,-39,7,62%,
Nc1ncnc2c1ncn2C1OC(CO)C(O)C1O (stereo unspecified),-9,-1.3,.,-7,-1%,
Cc1ccc(C(=O)NNC(=O)Cn2ccc(C(F)(F)F)n2)o1,-1,-2.1,.,.,.,
CC(=O)Nc1cccc(NC(=O)c2cccc(-c3ccc(O)cc3)c2)c1,6,4.9,.,.,.,
O=C(OCc1ccc(O)cc1)c1c(-c2ccsc2)oc2ccc(N3CCOCC3)cc12,27,0.6,.,.,.,
O=C(O)c1ccc(NC(=O)c2ccc(COc3ccccc3)o2)cc1,-2,-1.8,.,.,.,
COn1c(-c2ccc(Cl)cc2Cl)nc2ncccc21,-5,-1.6,.,7,6%,

# High-throughput results as filed in PubChem.

# A portion of the library (hit frequency here may not be typical).
